Bioassay records deposited in PubChem by National Center for Advancing Translational Sciences (NCATS).
VDR inh: blocks the human vitamin D receptor; hit rate 0.93% among 400,000; AID 504847; VDR-SRC2-3 peptide fluorescence polarization, 2 h; P11473; Potency, µM, for the others: max response, negative = inhibition, most hits filed as inhibitors; active = well fitted inhibition curve with a large enough effect; inconclusive = small, poorly fitted or top-dose-only effect, or another doubt; inactive = no such curve, though single readings can be large or run the other way; note: series mostly up to about 120 µM
Target sequence (P11473 whole entry, looked up): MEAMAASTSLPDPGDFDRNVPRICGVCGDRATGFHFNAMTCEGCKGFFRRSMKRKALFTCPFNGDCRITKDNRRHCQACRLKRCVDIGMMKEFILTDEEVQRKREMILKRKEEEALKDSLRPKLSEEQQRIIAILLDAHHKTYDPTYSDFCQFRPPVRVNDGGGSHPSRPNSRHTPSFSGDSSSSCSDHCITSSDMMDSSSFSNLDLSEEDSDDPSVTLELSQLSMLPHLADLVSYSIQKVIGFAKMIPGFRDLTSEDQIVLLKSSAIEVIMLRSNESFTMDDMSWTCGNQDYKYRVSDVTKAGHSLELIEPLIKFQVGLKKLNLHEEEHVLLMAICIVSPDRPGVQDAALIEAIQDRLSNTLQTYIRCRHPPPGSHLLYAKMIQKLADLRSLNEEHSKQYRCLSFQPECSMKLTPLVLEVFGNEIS
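FP read-out; VDR + SRC2-3 coactivator peptide; 23 nl compound by pintool; 2 h RT incubation; reagents held at 4 deg C, protected from light.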
Active calls of the source: *; ? = inconclusive; & = joins results of further samples. % is set by controls: 0 for no effect and ±100 for the full control effect; potency is the fitted concentration of half-maximal effect. The list is partial. The share of hits here may be higher or lower than overall.

VDR inh	compound
-10%	O=C1C=C(c2ccccc2)C[C@H](c2cccs2)[C@H]1n1nnc([N+](=O)[O-])n1
11%	CCOc1cccc(NC(=O)CSc2nc(C)c3c(c2C#N)CCCC3)c1
?	CCOC(=O)C1CCCN(C2CC(=O)N(c3cccc(C)c3)C2=O)C1 (centres undefined)
9%	COC(=O)c1ccc(NC(=O)CSc2nc3[nH]ncc3c(=O)[nH]2)cc1
-6%	COc1cccc(NC(=O)CCNC(=O)Cn2cnc3ccccc3c2=O)c1
1%	O=C1CCCc2ccccc2N1Cc1c(Cl)cccc1Cl
1%	CC1=NN(Cc2ccccc2)C(=O)/C1=C\c1ccc(N(C)C)cc1
-6%	CNc1c([N+](=O)[O-])cnn1-c1ccc(C)cc1
-11%	CCn1c(NC(=O)c2ccccc2F)c(-c2cccs2)c(=O)c2ccccc21
-1%	Cc1noc(C)c1CSc1nnc2sc3ccccc3n12
7%	S=C(NCc1ccccc1)Nc1ccc(Cl)cc1
15%	Cc1cnc(C(=O)OCC(=O)N2CCN(S(=O)(=O)c3ccc(Cl)cc3)CC2)cn1
-16%	O=C(NC(=S)Nc1ccc(N2CCOCC2)c(Cl)c1)C(c1ccccc1)c1ccccc1
6%	O=C(Nc1nnc(C2CC2)s1)c1ccncc1
4%	CCCC1S/C(=N/N=C/c2ccc(OC)cc2)N(Cc2ccc(OC)cc2)C1=O (centres undefined)
-17%	O=[N+]([O-])c1ccc(OCc2cccc(COc3ccc([N+](=O)[O-])cc3)n2)cc1
-28%	COc1ccc(C2=NOC(CNC(=O)c3ccccc3Br)C2)c(OC)c1 (centres undefined)
?	O=C1NC(=Nc2ccccc2Cl)S/C1=C\c1cc([N+](=O)[O-])ccc1O
0%	CCOC(=O)N1CCN(C(=O)c2ccc3[nH]c(C)c(C)c3c2)CC1
-7%	CC(C)CN1C(=O)c2ccccc2C1(O)Cc1ccccc1 (centres undefined)
7%	Cc1c(Cl)cccc1NC(=S)N1CCN(C(=O)C2CCCO2)CC1 (centres undefined)
-20%	O=C(NC1CCCC1)C(c1ccncc1)N(C(=O)c1csnn1)c1ccc(Cl)cc1 (centres undefined)
-7%	COc1cccc(/C=N/NC(=O)c2oc3nc(-c4ccccc4)cc(-c4ccco4)c3c2N)c1
3%	COc1ccc(CCNC(=O)c2cc(S(=O)(=O)N3CCCCCC3)ccc2OC)cc1OC
4%	Cc1cc[n+](CC(=O)c2ccc(NC(=O)c3ccccc3)cc2)c2ccccc12
6%	CC1CCc2nc(NC(=O)CSc3nc4ccccc4o3)sc2C1 (centres undefined)
7%	CCC(=O)Nc1ccc(C(=O)CSc2nnc(-c3ccc(O)cc3)n2CC2CCCO2)cc1OC (centres undefined)
-16%	CC1=CC(C)(C)N(C(=O)CCl)c2cc(C)ccc21
18%	Cc1ccnc2nc(C(=O)Nc3ccc(N4CCOCC4)cc3)nn12
-20%	O=C(COCc1cc(-c2ccc3c(c2)OCO3)on1)N1CCN(c2ccc(F)cc2)CC1
1%&-9%	CC(C)NCC(O)COc1ccc(CC(N)=O)cc1 (centres undefined)
-11%	COc1ccc(CC(=O)OCC(=O)Nc2ccc(Cl)cc2C)cc1
-2%	Cc1cc(C)c(S(=O)(=O)Nc2ncn[nH]2)cc1C
5%	CN(CC(=O)Nc1ccccc1Br)C(=O)c1ccc(COc2ccccc2)cc1
-15%	Nn1c(SCc2ccccc2)nnc1C1CCCCC1
-17%	CN1CCN(c2ccc(S(=O)(=O)N3CCCCC3)cc2NC(=O)c2ccc(F)cc2F)CC1
-9%	CCn1c(SCc2nc3ccccc3c(=O)[nH]2)nnc1-c1cccnc1
-4%	CCO/C=N/Nc1nc(C(F)(F)F)nc2c1cnn2Cc1ccccc1
-13%	C/C(CC(=O)Nc1cccc(Br)c1)=N\NC(=O)c1ccc(O)cc1O
-1%	CC(=O)Nc1ccc2nc(NC(=O)CCc3ccccc3)sc2c1
10%	CCNC(=O)c1cnc2c(-c3ccccc3)c(C)nn2c1C
-17%	COc1ccc(-n2nnnc2SC(C)C(=O)NCC(=O)Nc2ccc(F)c(F)c2F)cc1 (centres undefined)
2%	O=C(NCc1ccco1)c1cccc(NS(=O)(=O)c2ccccc2F)c1
-13%	CSc1ccc(CN2CCC(n3nccc3NC(=O)CCCc3ccccc3)CC2)cc1
-5%	O=C(Cc1cc(=O)[nH][nH]1)N/N=C/c1c(F)cccc1Cl
-10%	Nc1cc(C(=O)OCC(=O)NNC(=O)c2ccccc2)ccc1Cl
4%	CCCCNC(=O)c1cc2c(=O)n3cccc(C)c3nc2n(Cc2ccncc2)c1=N
-5%	CCN1C(=O)C(c2ccc(O)cc2)(c2ccc(O)cc2)c2ccccc21
-15%	COc1ccc([C@@H]2[C@@H]3C(=O)N(C(C)(C)C)C(=O)[C@@H]3[C@]3(Cc4ccccc4)C(=O)N(c4cccc(C)c4)C(=O)N23)cc1
1%	CCOc1cc(CNC2CCCC2)cc(Cl)c1OCc1ccc(F)cc1
-2%	Cc1cc(N=Cc2cc(Cl)ccc2O)no1
-20%	S=c1[nH]nc(Nc2cccc3ccccc23)s1
16%	CC(NCc1cccc(OCc2ccccc2)c1)C(O)c1ccccc1 (centres undefined)
-2%	CC(=O)c1cccc(NC(=O)C2CCN(c3ncnc4c3nc3n4CCCCC3)CC2)c1
-8%	CCOC(=O)C1CCN(C(=O)C2(NC(=O)Nc3ccc(F)cc3F)CCCCC2)CC1
10%	O=C1Nc2ccccc2N=C(c2ccccc2)c2ccccc21
8%	COc1ccccc1CNC(=O)c1c(N)n(CCCN2CCOCC2)c2nc3ccccc3nc12
-3%	COc1ncc2nc(-c3cn(C)c4ccccc34)c(=O)n(Cc3ccc(F)cc3)c2n1
5%	Cc1ccc(NC(=O)c2c(C)nc(Nc3nc4ccccc4o3)nc2C)cc1
7%	COc1ccccc1NC(=O)N(CCCN1CCOCC1)Cc1cc2cc3c(cc2[nH]c1=O)OCO3

Further structures follow:
VDR inh	compound
-6%	O=C(CN1CCN(S(=O)(=O)c2ccccc2)CC1)NC(=O)NC1CCCCC1
-4%	O=C(Cn1c(=O)oc2ccccc21)Nc1nc(-c2ccc(Br)cc2)cs1
-2%	CC(C)C1N=C2c3ccccc3N=C(SCc3cc(=O)n4cc(Cl)ccc4n3)N2C1=O (centres undefined)
7%	O=c1c2c3nc4ccccc4nc3n(/N=C/c3ccncc3)c2ncn1-c1ccccc1
-9%	O=[N+]([O-])c1ccc2c(c1N1CCCCC1)=NC1(CCCCC1)[N+]=2[O-]
20%	COc1ccc(S(=O)(=O)Nc2cc3c4c(c2)CCN4C(=O)CC3)cc1C
-7%	Cc1cc(C)c(S(=O)(=O)N2CCOCC2)cc1NS(=O)(=O)c1cc(OCC(N)=O)c(C)cc1Cl
2%	CNC(=S)N/N=C/C1=CCC2CC1C2(C)C (centres undefined)
17%	CCOc1ncccc1C(=O)OCC(=O)Nc1ncc(C(F)(F)F)cc1Cl
-1%	CC1Cc2ccccc2N1C(=O)CCn1c(=O)oc2ccccc21 (centres undefined)
16%	Cc1cc(C)nc(NS(=O)(=O)c2ccc(NC(=O)c3snnc3C)cc2)n1
8%	CN1CCN(C2=Cc3ccccc3Sc3cc(F)c(Cl)cc32)CC1
9%	CCn1c(O)c(/C=C2\C=Nc3ccccc32)sc1=O
-1%	CCCNC(=O)c1ccc(-c2nc3ccccc3s2)s1
-6%	CC(Oc1ccccc1)C(=O)N1CCN(c2ccc(N3CCOCC3)nn2)CC1 (centres undefined)
-10%	COc1ccc(OC)c(NC(=O)c2nnn(CCc3ccccc3)c2N)c1
8%	CN(CCN1CCc2ccccc2C1)Cc1nc(-c2ccc3c(c2)OCO3)no1
-12%	COc1ccc(NC(=O)NCCN2C(=O)C3C4C=CC(C4)C3C2=O)cc1 (centres undefined)
0%	COc1cccc(-c2nc(SC)nc3sc(C(=O)NC(C)(C)C)c(N)c23)c1
-8%	CCc1csc(CCNC(=O)C2CCC(=O)N(Cc3ccccc3F)C2)n1 (centres undefined)
-11%	C=CCn1c(SCC(=O)N2CCCC2)nc2cc(C(=O)NCC3CCCO3)ccc2c1=O (centres undefined)
-3%	CC(=O)c1c(C)[nH]c(C(=O)Nc2cccc(C(F)(F)F)c2)c1C
1%	O=C(c1ccccc1)c1cn[nH]c1-c1ccccc1O
5%	COCCNC(=O)c1ccccc1NC(=O)C1COc2ccccc2O1 (centres undefined)
-21%	CCOCC(=O)Nc1nnc(Cc2ccc(OC)c(OC)c2)s1
3%	CCN(CC)C(=O)N1CCN(S(=O)(=O)c2c(C)cc(C)cc2C)CC1
5%	COc1ccc(SC[C@H](Cc2ccccc2)N2CCN(CCc3ccccc3)CCC2=O)cc1
-4%	COc1ccccc1N1CCN(Cc2ccsc2)CC1
-1%	C=CCN=C1N[C@@H](c2ccccc2)C(C(=O)OC)=C(C)N1CC
-17%	CN(C(=O)CSc1nc2ccccc2[nH]1)c1ccc(F)cc1
-13%	O=C(COC(=O)C1=COCCO1)Nc1ncc(Cl)cc1Cl
6%	CC(C)Oc1cc(NC(=O)CSCC(=O)Nc2cccc(C(F)(F)F)c2)c(Cl)cc1Cl
-8%	Cc1ccc(N2C(=O)C(Cl)=C(N3CCCCCC3)C2=O)c(C)c1
-10%	CC(NC(=O)c1ccccc1F)c1nnc(SCC(=O)Nc2nnc(C3CC3)s2)n1C (centres undefined)
1%	CN(C)/C=C/C(=O)c1cnc(-c2ccccc2)s1
2%	O=C(NCCN1CCN(Cc2ccccc2)CC1)c1cc2c(=O)[nH]c3ccccc3c2s1
-5%	CCCSCCCNC(=O)C1CCCN(C(=O)c2cnn(-c3ccccc3)c2-n2cccc2)C1 (centres undefined)
4%	COc1ccc(C2c3cc(OC)c(OC)cc3CCN2C(=O)c2ccccc2)cc1OC (centres undefined)
11%	CCOC(=O)C1CCN(C(=O)CN(c2cc(OC)ccc2OC)S(=O)(=O)c2ccccc2)CC1
-2%	Cc1ccc(C)c(OCC(=O)O/N=C(\N)c2cccnc2)c1
?	CCOC(=O)c1nnc(-c2ccc(C)cc2)nc1Sc1ccccc1Cl
1%	CCC(=O)N(C)CCc1cc2c(c(OC)c1/C=N/NC(=O)c1ccccc1O)OCO2
7%	CN1CCN(CCCNC(=O)Cn2ncc3c4ccccc4n(C)c3c2=O)CC1
4%	O=C(Nc1cccnc1Cl)c1cccc(S(=O)(=O)N2CCOCC2)c1
7%	Cc1ccc(C(C)C)c(OCCN(C)C)c1
6%	COc1ccc(/C=C/C(=O)C2(O)CCCCC2)cc1OC
3%	C/C(CC(=O)Nc1cccc(C(F)(F)F)c1)=N\NC(=O)C1CCCCC1
-7%	O=C(NCC1COc2ccccc2O1)c1cc2ccccc2o1 (centres undefined)
-5%	CCN(CC(=O)Nc1ccccc1C(F)(F)F)CC(=O)NC1CC1
0%	COc1ccccc1N1CN(Cc2ccccc2)CNC1=S
2%	COc1ccc(NC(=O)c2ccc(=O)[nH]c2)cc1S(=O)(=O)N1CCOCC1
2%	O=C(NCCc1c[nH]c2ccccc12)c1ccccc1O
5%	COC(=O)c1ccccc1S(=O)(=O)N1CCC(C(=O)OCC(=O)NC2CCCCC2C)CC1 (centres undefined)
-22%	CCN1CCCC1CNC(=O)c1cc2c(=O)n(C)c3ccccc3c2n1C (centres undefined)
-19%	CN(C1CCCC1)C1CCN(C(=O)CNC(=O)/C=C/c2cccc(C(F)(F)F)c2)CC1
5%	Cc1ccccc1C1=NC(C(F)(F)F)(C(F)(F)F)c2c(n(-c3ccc(F)cc3)c(=O)[nH]c2=O)N1
-13%	COc1ccc(C(=O)COC(=O)C(CC(C)C)N2C(=O)c3ccccc3C2=O)cc1 (centres undefined)
0%	COc1ccc(OC)c(S(=O)(=O)Nc2ccccc2C(F)(F)F)c1
3%	COc1ccc(NS(=O)(=O)c2cccc(C(=O)NCCCN3CCCC3=O)c2)cc1
1%	C=CCNC(=O)CSc1ccc(Cl)cc1

An excerpt of these results, tab-delimited:
Structure	VDR inh
O=C(Nc1cccnc1Cl)c1cccc(S(=O)(=O)N2CCOCC2)c1	4%
Cc1ccc(C(C)C)c(OCCN(C)C)c1	7%
COc1ccc(/C=C/C(=O)C2(O)CCCCC2)cc1OC	6%
C/C(CC(=O)Nc1cccc(C(F)(F)F)c1)=N\NC(=O)C1CCCCC1	3%
O=C(NCC1COc2ccccc2O1)c1cc2ccccc2o1 (centres undefined)	-7%
CCN(CC(=O)Nc1ccccc1C(F)(F)F)CC(=O)NC1CC1	-5%
COc1ccccc1N1CN(Cc2ccccc2)CNC1=S	0%
COc1ccc(NC(=O)c2ccc(=O)[nH]c2)cc1S(=O)(=O)N1CCOCC1	2%
O=C(NCCc1c[nH]c2ccccc12)c1ccccc1O	2%
COC(=O)c1ccccc1S(=O)(=O)N1CCC(C(=O)OCC(=O)NC2CCCCC2C)CC1 (centres undefined)	5%
CCN1CCCC1CNC(=O)c1cc2c(=O)n(C)c3ccccc3c2n1C (centres undefined)	-22%
CN(C1CCCC1)C1CCN(C(=O)CNC(=O)/C=C/c2cccc(C(F)(F)F)c2)CC1	-19%
Cc1ccccc1C1=NC(C(F)(F)F)(C(F)(F)F)c2c(n(-c3ccc(F)cc3)c(=O)[nH]c2=O)N1	5%
COc1ccc(C(=O)COC(=O)C(CC(C)C)N2C(=O)c3ccccc3C2=O)cc1 (centres undefined)	-13%
COc1ccc(OC)c(S(=O)(=O)Nc2ccccc2C(F)(F)F)c1	0%
COc1ccc(NS(=O)(=O)c2cccc(C(=O)NCCCN3CCCC3=O)c2)cc1	3%
C=CCNC(=O)CSc1ccc(Cl)cc1	1%

Continuation.
VDR inh	compound
-21%	CCCCn1c(N)c(N(CCOC)C(=O)COC(=O)c2cc(CCC)c(C)s2)c(=O)[nH]c1=O
-14%	COc1ccc2c(c1)C(c1cccs1)=NNC(c1ccncc1)=N2
-2%	CC(C)NC(=O)N(C)C[C@@H]1Oc2ccc(NC(=O)CCN3CCOCC3)cc2CC(=O)N([C@@H](C)CO)C[C@@H]1C
?	c1ccc(CNc2oc(-c3ccccc3)nc2-c2cccc3ccccc23)cc1
7%	c1cc2c(cc1C1CCCCC1)c1c3n2CCCNC3CCC1 (centres undefined)
